Compound activity from PubChem BioAssay.
Cruzain Triton: qHTS Assay for Promiscuous and Specific Inhibitors of Cruzain (with detergent); Cruzipain (Trypanosoma cruzi), P25779; purified cruzain, Z-FR-AMC fluorescence, 0.01% Triton; Potency, µM, inactives show max response, negative = inhibition, most hits filed as inhibitors; 200,000 tested, 0.43% active; AID 1478, 2009; active = well fitted curve in the direction sought with a large enough effect; inconclusive = small, poorly fitted or top-dose-only effect, or another doubt; inactive = no such curve, though single readings can be large; an effect the other way counts as inactive or inconclusive;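 note: plate controls were neutral wells for no effect and buffer without enzyme for full effect; nearly all actives have a fitted effect of over 40% in size; top concentration of the series not given in the record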
Target sequence (P25779 123-467 limits assumed): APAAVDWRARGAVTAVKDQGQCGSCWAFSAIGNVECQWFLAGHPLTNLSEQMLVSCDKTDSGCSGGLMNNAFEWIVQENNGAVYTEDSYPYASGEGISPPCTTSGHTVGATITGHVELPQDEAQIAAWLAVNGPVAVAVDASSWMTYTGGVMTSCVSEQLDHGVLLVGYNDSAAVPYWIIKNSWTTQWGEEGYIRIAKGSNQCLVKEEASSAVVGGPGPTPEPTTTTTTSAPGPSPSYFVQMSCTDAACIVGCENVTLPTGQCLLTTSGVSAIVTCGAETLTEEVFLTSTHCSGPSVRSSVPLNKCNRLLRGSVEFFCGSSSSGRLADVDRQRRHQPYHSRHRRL
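In this qHTS format, compounds are incubated with 1.5 nM cruzain for 15 min at room temperature before 2 uM Z-FR-AMC is added. Release of AMC is followed at 360/450 nm, and progress is taken as the 60 s fluorescence difference.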
SARS PLP yeast: qHTS of Yeast-based Assay for SARS-CoV PLP; Potency, µM (highest dose often 32.9 µM), for inactives: at the highest dose activity, positive = growth rescue; 330,000 tested, 0.19% active; S. cerevisiae expressing SARS-CoV PLpro, growth rescue; control for the full effect not named in the record; note: 0% is about no effect; nearly all actives have a fitted effect of over 55% in size; growth read by luminescence after 48 h
StopGo reporter: High Throughput Screening for Foot and Mouth Disease Virus Antivirals; human cells with a luciferase reporter of 2A StopGo recoding; control for the full effect not named in the record; Potency, µM (titrated, usually from 57.9 µM), for the others: top-dose signal change, negative = less light; 410,000 tested, 1.2% active; active = well fitted falling curve with a large enough effect; inconclusive = small, poorly fitted or top-dose-only effect; inactive = no such curve, though single readings can be large or run the other way; tested in HEK293T cells; note: % is set by controls: 0 for no effect and ±100 for the full control effect; nearly all actives have a fitted effect of over 45% in size; luciferase light after 4 h
NS1 inh: qHTS Assay for Inhibitors of Influenza NS1 Protein Function; S. cerevisiae slowed by influenza A NS1, growth recovery by OD600; Potency, µM (series often up to 46.1 µM), inactives show at the top dose activity, positive = more growth; 270,000 tested, 0.4% active; AID 2326, 2010; note: actives are rising curves; nearly all actives have a fitted effect of over 50% in size
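Read-out: OD600 growth recovery of NS1-expressing budding yeast. Cells grown overnight at 30C in -URA glucose medium, washed, resuspended and diluted 1:100 in 2% galactose assay medium, pH 6.0. Same strain lacking NS1 served as positive control.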
Cruzain noTriton: qHTS Assay for Promiscuous and Specific Inhibitors of Cruzain (without detergent). Cruzipain (Trypanosoma cruzi), P25779. purified cruzain, Z-FR-AMC fluorescence, no detergent. Potency, µM, inactives show max response, negative = inhibition, hits mostly inhibitors. 200,000 tested, 2.3% active; active = well fitted curve in the direction sought with a large enough effect; inconclusive = small, poorly fitted or top-dose-only effect, or another doubt; inactive = no such curve, though single readings can be large; an effect the other way counts as inactive or inconclusive;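 note: plate controls were enzyme without inhibitor for no effect and buffer without enzyme for full effect; nearly all actives have a fitted effect of over 40% in size; top concentration of the series not given in the record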
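Detergent-free condition (0.00005% Triton X-100) in acetate buffer pH 5.5 with DTT. 1.5 nM enzyme and compound were pre-mixed 15 min, then 2 uM Z-FR-AMC substrate added; reaction progress from fluorescence change between first and third reads (60 s).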
LASV entry inh: qHTS for Inhibitors of binding or entry into cells for Lassa Virus. AID 540256, 2011. Potency, µM (highest dose often 37.9 µM), for the others: at the highest dose activity change, negative = inhibition, most hits filed as inhibitors. 300,000 tested, 1.2% active. Lassa virus pseudotype entry inhibition, cell reporter; control for the full effect not named in the record; active means well fitted inhibition curve with a large enough effect; inconclusive means small, poorly fitted or top-dose-only effect, or effect the other way; inactive means flat fitted curve, though single readings scatter; tested in HEK293 cells; note: % is set by controls: 0 for no effect and ±100 for the full control effect; nearly all actives have a fitted effect of over 50% in size; luciferase read-out
MARV entry inh: qHTS for inhibitors of binding or entry into cells for Marburg Virus | 300,000 tested, 1.8% active | Marburg virus pseudotyped entry inhibition, cell reporter; control for the full effect not named in the record; about a third of the inactives were read at about 46 µM | Potency, µM (series often up to 37.8 µM), for inactives: top-dose activity change, negative = inhibition, hits mostly inhibitors; active = well fitted inhibition curve with a large enough effect; inconclusive = small, poorly fitted or top-dose-only effect, or effect the other way; inactive = flat fitted curve, though single readings scatter; tested in HEK293 cells; about a fifth of its hits are not listed in these tables; note: % is set by controls: 0 for no effect and ±100 for the full control effect; luciferase read-out
RE007 growth inh: qHTS Assay for Inhibitors of the HIV-1 protein Vpr; Potency, µM (highest dose often 92.2 µM), for the others: at the highest dose activity change, negative = less growth; S. pombe RE007 Vpr strain, BacTiter-Glo ATP luminescence, 24 h; control for the full effect not named in the record; AID 651644, 2012; 360,000 tested, 0.21% active; active = well fitted falling curve with a large enough effect; inconclusive = small, poorly fitted or top-dose-only effect; inactive = no such curve, though single readings can be large or run the other way;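 note: % is set by controls: 0 for no effect and ±100 for the full control effect; nearly all actives have a fitted effect of over 50% in size; the assay follows cell death caused by Vpr and the record does not say whether a fall means rescue or toxicity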
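Fission yeast strain RE007, carrying one chromosomally integrated HIV-1 vpr copy, was seeded at OD 0.01 in PMG+AL medium with 23 nL pinned compound. After 24 h at 30 °C and 99% humidity, viability was read by BacTiter-Glo luminescence.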
* = called active by the depositor; & = joins results of further samples; [ ] = dose if it differs, or a comment. Unless noted, calls come from the whole dose curve; as a rule, active means well fitted rising curve with a large enough effect; inconclusive means small, poorly fitted or top-dose-only effect; inactive means no such curve, though single readings can be large or run the other way. Potency is the fitted concentration of half-maximal effect.

Results for COc1ccc(-c2cc(C(F)(F)F)n3nc(C(=O)Nc4c(C)n(C)n(-c5ccccc5)c4=O)c(Cl)c3n2)cc1 ?
SARS PLP yeast: 8.4%; StopGo reporter: -25.4%; LASV entry inh: 2.8%; MARV entry inh: -24.0%[14.2 µM]; RE007 growth inh: 5.4%

Results for COc1ccc(Nc2nc(-c3ccncc3)nc3ccccc23)cc1 ?
SARS PLP yeast: 2.4%; StopGo reporter: -27.4%; NS1 inh: -0.6%; LASV entry inh: -9.6%[46.1 µM]; MARV entry inh: 2.82µM*; RE007 growth inh: -9.5%

What do the screens show for `N#C/C(N)=C(/C#N)N=Cc1cccc(Cl)c1`?
SARS PLP yeast: -6.9%; StopGo reporter: -25.2%; NS1 inh: -7.0%; LASV entry inh: 25.9%; MARV entry inh: -3.8%; RE007 growth inh: -5.3%

Results for Cc1ccc(-c2nn3c(C)nnc3s2)cc1N ?
Cruzain Triton: -4.2%; SARS PLP yeast: 1.9%; StopGo reporter: 60.4%[activator]; NS1 inh: -1.2%; Cruzain noTriton: -9.8%; LASV entry inh: 15.0%; MARV entry inh: inconclusive; RE007 growth inh: -0.6%

What do the screens show for `CCCCSc1ncnc2c1c(-c1ccccc1)cn2-c1cccc(F)c1`?
Cruzain Triton: -0.5%; StopGo reporter: 5.3%; Cruzain noTriton: 4.2%; LASV entry inh: 23.8%[46.1 µM]; MARV entry inh: inconclusive

What do the screens show for `CC1(C)CC(=O)C2=C(C1)OC(N)=C([N+](=O)[O-])C2c1ccc(F)cc1` (stereo not drawn)?
SARS PLP yeast: 0.3%; StopGo reporter: -13.6%; NS1 inh: -1.7%; LASV entry inh: -2.7%; MARV entry inh: -3.5%; RE007 growth inh: -3.6%

How did CSc1nc(C)c2c(n1)N(c1ccc(F)cc1)CC2 do in these assays?
Cruzain Triton: 3.1%; SARS PLP yeast: 0.9%; StopGo reporter: -16.5%; NS1 inh: -10.2%; Cruzain noTriton: 1.8%; LASV entry inh: -2.6%; MARV entry inh: 11.8%; RE007 growth inh: -0.5%

What do the screens show for `OC(Cc1nc2ccccc2[nH]1)c1ccccc1Cl` (stereo not drawn)?
Cruzain Triton: 9.7%; SARS PLP yeast: -5.2%; NS1 inh: 0.282µM*; Cruzain noTriton: -9.4%; LASV entry inh: 9.4%; MARV entry inh: -7.5%; RE007 growth inh: -16.8%

What do the screens show for `CCOC(=O)CC(NC(=O)c1ccc(C)cc1)c1ccc(OC)cc1` (stereo not drawn)?
SARS PLP yeast: -1.8%; StopGo reporter: -9.7%; LASV entry inh: inconclusive; MARV entry inh: -2.4%[46.1 µM]; RE007 growth inh: -4.9%

Results for O=C(O)CCCCCN1C(=O)CCC1=O ?
Cruzain Triton: 6.7%; SARS PLP yeast: -1.2%; StopGo reporter: 1.5%; NS1 inh: -9.0%; Cruzain noTriton: 8.8%; LASV entry inh: -1.7%; MARV entry inh: -9.7%&-9.7%[46.1 µM]; RE007 growth inh: 12.9%

What do the screens show for `CC(OC(=O)c1ccc(Br)o1)C(=O)NCC1CCCCC1` (stereo not drawn)?
SARS PLP yeast: 1.5%; StopGo reporter: -0.1%; LASV entry inh: 13.0%; MARV entry inh: inconclusive; RE007 growth inh: 11.1%

What do the screens show for `O=C(CCCn1c(=S)[nH]c2cc3c(cc2c1=O)OCO3)NC1CC1`?
Cruzain Triton: 1.5%; SARS PLP yeast: 5.2%; StopGo reporter: 5.2%; NS1 inh: 1.2%; Cruzain noTriton: 11.9%; LASV entry inh: 6.6%; MARV entry inh: 7.8%; RE007 growth inh: 3.0%

How did CCOC(=O)c1c(N)n(CCN2CCOCC2)c2nc3ccccc3nc12 do in these assays?
Cruzain Triton: -16.5%; SARS PLP yeast: -4.3%; NS1 inh: -8.2%; Cruzain noTriton: -5.6%; LASV entry inh: inconclusive; MARV entry inh: 0.8%; RE007 growth inh: -3.6%

How did COc1ccc(CNC(=O)C2CCC(CNS(=O)(=O)c3cccc4nsnc34)CC2)cc1 (stereo not drawn) do in these assays?
Cruzain Triton: -3.4%; SARS PLP yeast: -1.3%; StopGo reporter: -23.6%; NS1 inh: 4.0%; Cruzain noTriton: -0.7%; RE007 growth inh: -8.6%

Results for Cc1ccccc1-n1c(=O)c2ccccc2n(Cc2ccc(F)cc2)c1=O ?
Cruzain Triton: -4.8%; StopGo reporter: 0.0%; Cruzain noTriton: 6.2%; LASV entry inh: -5.3%[46.1 µM]; MARV entry inh: 6.4%[46.1 µM]

Results for COc1ccc(-c2csc(NC(=O)Cc3cccc4ccccc34)c2C(=O)O)cc1 ?
SARS PLP yeast: -0.1%; StopGo reporter: 9.3%; LASV entry inh: -6.8%; MARV entry inh: 13.9%[46.1 µM]; RE007 growth inh: 39.5%

What do the screens show for `COc1ccc(N2CCC(CNC(=S)Nc3ccc(C)cc3C)C2)cc1` (stereo not drawn)?
SARS PLP yeast: -1.1%; StopGo reporter: -17.3%; NS1 inh: 18.2%; RE007 growth inh: 0.6%

Results for Cc1ccccc1NC(=O)c1cccc(S(C)(=O)=O)c1 ?
SARS PLP yeast: 2.0%; StopGo reporter: 7.1%; LASV entry inh: 6.0%[46.1 µM]; MARV entry inh: 11.6%[46.1 µM]; RE007 growth inh: 22.9%

How did CC(CN1CCCC1)OC(=O)c1cccc(F)c1 (stereo not drawn) do in these assays?
SARS PLP yeast: -7.4%; StopGo reporter: -4.0%; NS1 inh: -10.1%; RE007 growth inh: -15.9%

What do the screens show for `O=C1CC(c2ccc(F)cc2)c2c(c3ccccc3oc2=O)O1` (stereo not drawn)?
Cruzain Triton: 0.1%; StopGo reporter: -16.9%; Cruzain noTriton: 1.3%; LASV entry inh: -4.7%[46.1 µM]; MARV entry inh: 4.5%[46.1 µM]

Results for COc1cc(C)ccc1OCc1cc(C(=O)N(Cc2nccn2C)C(C)C)no1 ?
SARS PLP yeast: -3.3%; StopGo reporter: 16.2%; NS1 inh: -14.1%; RE007 growth inh: -9.7%

Results for CN(CC(=O)Nc1cccc(F)c1)CC(=O)Nc1ccccc1-c1ccccc1 ?
SARS PLP yeast: -0.7%; StopGo reporter: -14.6%; LASV entry inh: -3.6%[46.1 µM]; MARV entry inh: inconclusive; RE007 growth inh: -22.7%

What do the screens show for `CC(Oc1ccccc1F)C(=O)NNC(=O)c1ccc(-n2cncn2)c([N+](=O)[O-])c1` (stereo not drawn)?
StopGo reporter: -0.5%; LASV entry inh: -8.4%; MARV entry inh: 8.1%[46.1 µM]; RE007 growth inh: 0.8%

What do the screens show for `Cc1cccc(NC(=O)c2cccc(S(=O)(=O)N3CCCCC3)c2)c1`?
SARS PLP yeast: -0.9%; StopGo reporter: 17.3%; NS1 inh: 6.7%; MARV entry inh: -23.8%[46.1 µM]; RE007 growth inh: 5.2%

What do the screens show for `O=C(NCc1ccccc1)c1onc(CSc2ccccc2)c1C(=O)NCC1CC1`?
SARS PLP yeast: -0.7%; StopGo reporter: -20.7%; NS1 inh: -56.5%; RE007 growth inh: 4.5%

How did COc1ccc(Cl)cc1S(=O)(=O)N1CCN(CC(=O)Nc2ccccc2C(F)(F)F)CC1 do in these assays?
Cruzain Triton: 2.0%; StopGo reporter: -26.2%; Cruzain noTriton: -15.8%; LASV entry inh: 8.4%[46.1 µM]

How did COc1ccc(N=C2C(=S)N(c3ccc(OC)cc3)C(=NS(=O)(=O)c3ccccc3)N2c2ccccc2)cc1 do in these assays?
StopGo reporter: 0.0%; LASV entry inh: inconclusive; MARV entry inh: -43.8%; RE007 growth inh: -6.9%

Results for CCCOc1ccc(C2C(=O)N(C3CCCCCC3)CC(=O)N2Cc2ccco2)cc1OC (stereo not drawn) ?
Cruzain Triton: 0.9%; SARS PLP yeast: -0.9%; StopGo reporter: -22.7%; NS1 inh: 6.0%; Cruzain noTriton: 16.3%; LASV entry inh: -6.3%; MARV entry inh: -14.4%; RE007 growth inh: -7.6%

How did COc1ccc(-c2cc(C(=O)Nc3ccc(S(N)(=O)=O)cc3)c3ccccc3n2)cc1OC do in these assays?
SARS PLP yeast: -0.8%; StopGo reporter: -20.2%; NS1 inh: 10.2%; RE007 growth inh: 21.6%

How did Cc1cc(C(=O)Nc2ccc(C(C)C)cc2)c2c(C)nn(-c3ccccc3)c2n1 do in these assays?
Cruzain Triton: -1.4%; StopGo reporter: -8.7%; Cruzain noTriton: -2.7%; LASV entry inh: inconclusive

How did Brc1ccc(COc2ncnc3ccccc23)cc1 do in these assays?
SARS PLP yeast: -3.4%; StopGo reporter: -18.6%; NS1 inh: -6.9%; LASV entry inh: 1.7%; MARV entry inh: inconclusive; RE007 growth inh: 21.2%

What do the screens show for `CS(=O)(=O)N1CCC(C(=O)Nc2cccc(F)c2)CC1`?
SARS PLP yeast: -3.7%; StopGo reporter: -23.6%; NS1 inh: -2.0%; RE007 growth inh: 6.2%

What do the screens show for `COc1ccc(C2C(=O)N(C3CCCCCC3)CC(=O)N2CCc2ccccc2)cc1` (stereo not drawn)?
Cruzain Triton: -0.9%; StopGo reporter: -13.3%; Cruzain noTriton: -0.7%; LASV entry inh: inconclusive

Results for COc1cc(C(=O)OCC(=O)Nc2nnc(-c3ccccc3)o2)cc(OC)c1OC ?
SARS PLP yeast: -7.6%; StopGo reporter: 3.5%; LASV entry inh: 0.2%; MARV entry inh: 3.3%; RE007 growth inh: 5.6%

Results for CCCC(=O)Nc1nnc(S(=O)(=O)N(CC(C)C)c2ccccc2)s1 ?
SARS PLP yeast: 1.3%; StopGo reporter: -23.6%; NS1 inh: 0.9%; RE007 growth inh: 12.6%

Results for CCn1c(CO)nc2c1c(=O)[nH]c(=O)n2Cc1ccccc1 ?
SARS PLP yeast: 3.3%; StopGo reporter: 15.1%; NS1 inh: 2.0%; MARV entry inh: 17.6%[46.1 µM]; RE007 growth inh: -0.4%

How did CC(=O)Nc1ccc(-c2csc(NC(=O)Cc3cccc(F)c3)n2)cc1 do in these assays?
SARS PLP yeast: 1.2%; StopGo reporter: -3.0%; NS1 inh: 22.2%; LASV entry inh: inconclusive; MARV entry inh: inconclusive; RE007 growth inh: 4.4%

Results for COc1ccccc1C(CC(=O)Nc1ccccc1C)c1ccc(OC(C)C)cc1 (stereo not drawn) ?
Cruzain Triton: -5.8%; SARS PLP yeast: -16.4%; StopGo reporter: -22.0%; NS1 inh: -3.0%; Cruzain noTriton: -15.2%; RE007 growth inh: -7.3%
